Tgondii IFNg – T. gondii growth inhibition under IFN-gamma; Toxoplasma gondii growth in IFN-gamma-treated host cells; active compounds read low; reference of the scale not given here; activity change, negative = inhibition, %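 (about 20 µM by stock and volumes)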; 3.8% of 69,000 active;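 active = below -70%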;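 note: host cells are HeLa cells infected with Toxoplasma gondii; parasite growth read as luciferase light; one replicate is shown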
Numbers without * were called inactive; i = inactive.

SMILES	Tgondii IFNg
COc1ccc(Cl)cc1-c1ncccc1C(=O)N1C[C@H]2CC[C@@H]1C2	4.7
CCn1ccnc1CN(C)Cc1cn(-c2cccc(C)c2)nc1-c1cccc(F)c1	-30.2
COCCN1C(=O)N(Cc2ccccc2)C2(CCN(Cc3nccs3)CC2)C1=O	12.0
COc1cccc(/C=c2\c(=O)n(Cc3ccccc3)c3nc4c(c(=O)n(C)c(=O)n4C)n23)c1	10.7
O=S(=O)(Cc1ccccc1)N1CC2CN(Cc3ccccc3)CC2C1 (stereo not drawn)	-14.4
O=C(Cc1nc2ccc(Cl)cc2[nH]1)N(Cc1ccccn1)CC1CCCO1 (stereo not drawn)	-9.5
Cc1c(C(=O)N2CCCC3(CC2)CN(C)C(=O)O3)sc2ccccc12 (stereo not drawn)	-2.8
O=C1CC(c2ccncc2)C2(CCN(Cc3nccs3)CC2)N1 (stereo not drawn)	-25.1
C=CCN(CC#Cc1ccccc1)Cc1cccc2c1OCO2	-24.5
Nc1nc2c(sc(=O)n2[C@@H]2O[C@H](CO)[C@@H](O)[C@H]2O)c(=O)[nH]1	-6.0
O=C(CC1COCCN1)NCc1scnc1-c1ccccc1 (stereo not drawn)	5.0
CCOCC1CN(Cc2cc(C)on2)Cc2ncn(CC3CC3)c21 (stereo not drawn)	-2.8
Cc1cc(C)c(-n2cccn2)c(CN(CCN(C)C)Cc2ccccn2)c1	61.7
Cc1ccc(C(=O)N2CCN(S(=O)(=O)c3cn(C)nc3-c3ccncc3)CC2)cc1	0.6
CC(CO)NC(=O)C1(Cc2ccccc2-c2ccncc2)CCOCC1 (stereo not drawn)	-11.2
CN(C)c1ncnc2c1CCN(C(=O)[C@H]1CCCO1)CC2	0.2
COCC#Cc1ccc([C@H]2[C@@H](CO)N3CCCCN(Cc4cccnc4)C[C@H]23)cc1	0.1
COc1ccc(CN(Cc2cccc(F)c2)C(=O)CC2=CCNCC2)cc1	-42.8
COc1cc2c(cc1OC(C)C)[C@H](c1ccc(Cl)cc1)N(c1ccc(N(C)CC3CCC(N4CCN(C)C(=O)C4)CC3)cc1)C(=O)C2 (stereo partly drawn)	-79.1*
O=C(NCCCCN1CCOCC1)c1cc2ccccc2o1	10.1
CC=Cc1ccc2n(c1=O)C[C@H]1[C@H](CO)[C@@H](C(=O)NCCc3cn(C)cn3)[C@@H]2N1C(=O)C1CCC1 (mixture of isomers)	0.8
COCC(=O)N1CC2(C1)CN(Cc1nccs1)[C@H](CO)c1c2c2ccc(OC)cc2n1C	-20.5
Cc1ccccc1NC(=O)N1C[C@@H](O)[C@H](NCCc2ncccc2C)C1	39.6
CCCCc1ccc(Nc2ncnc3c2cnn3-c2cccc(C)c2)cc1	-68.3
Cc1ccc(S(=O)(=O)N(C)c2cncc(C(=O)N3CCCCC3)c2)cc1	38.3

Remaining list, next part.
SMILES	Tgondii IFNg
CC(C)N1CC[C@]2(CCC[C@@H](CNC(=O)c3cccn3C)O2)C1	3.1
Cc1occc1C(=O)N1CC[C@H](OCC2CC2)[C@@H]1Cc1cnn(C)c1	0.8
C/C=C/CC(=O)Nc1cccc(C(=O)Nc2c(C)cccc2C)c1	-2.7
Cn1cc(-c2ccno2)c(C(=O)NC(Cc2cccs2)c2ccccn2)n1 (stereo not drawn)	-26.6
COc1ccccc1-n1cc(C(=O)N2CCC3(CCCN(C)C3=O)C2)cn1 (stereo not drawn)	3.5
O=C(O)c1ccc(CN2CCCC2)cc1	43.2
CCCC(=O)N1CCC2(CC1)CN(C(=O)Cc1ccccn1)[C@@H](CO)c1[nH]c3cc(OC)ccc3c12	132.3
CCC(C)NC(=O)Cn1ncc2c(N3CCOCC3)ncnc21 (stereo not drawn)	12.8
CC(C)c1cn(CC[C@@H]2CC[C@@H](NS(=O)(=O)c3ccc(F)cc3)[C@@H](CO)O2)nn1	-29.7
Cc1nccn1C(C(=O)Nc1ccc2c(c1)nc(C(F)(F)F)n2C)c1ccccc1 (stereo not drawn)	12.6
CC(=O)OCC(=O)[C@@]1(O)CCC2C3CCC4=CC(=O)CC[C@]4(C)C3=CC[C@@]21C (stereo partly drawn)	-3.5
Cc1nc(C)c(C(=O)N2C[C@H]3OC(=O)N(Cc4ccccn4)[C@H]3C2)s1	7.1
CN1CCN(c2nc(C3=C(c4c[nH]c5ccccc45)C(=O)NC3=O)c3ccccc3n2)CC1	-56.4
CCCC(NC(=O)CCc1nnc(-c2ccc(-c3ccccc3)cc2)o1)c1ccccc1 (stereo not drawn)	-46.2
COCCN1CCC(Cn2ccnc2-c2ccc(NC(C)=O)cc2)C1 (stereo not drawn)	3.0
CCN1c2cc(C)ccc2-n2cccc2C12CCN(C(=O)Nc1ccc(C)cc1Cl)CC2	106.7
C=CCN1C(=O)C2(NCCc3c2[nH]c2ccc(Cl)cc32)c2ccccc21 (stereo not drawn)	-53.8
COc1cc(-c2nc(Cn3ccn4nc(-c5ccc6c(c5)OCO6)cc4c3=O)c(C)o2)cc(OC)c1OC	-30.4
C=CCN(Cc1cccnc1)C(=O)c1nc2ccccc2s1	5.4
O=C(NC[C@H]1[C@H](c2ccccc2)[C@H](CO)N1C(=O)C1CCC1)NC1CCCC1	-19.2
CCn1c(=O)c(C(=O)Nc2ccc(OC)cc2)c(O)c2ccccc21	116.4
CCOC(=O)CC(C)Nc1cc(NC(C)=O)ccc1OC (stereo not drawn)	-48.1
Cc1ccc(CN2CCC3(CC2)CN(C)Cc2ccccc23)o1	-1.4
CCOc1ccccc1O[C@H](c1ccccc1)[C@H]1CNCCO1 (racemic)	19.5
CS(=O)(=O)N[C@@H]1CCN(C(=O)C2CC2)[C@H]1Cc1cccnc1	3.2

A second format for some results above.
canonical_smiles: COc1ccccc1-n1cc(C(=O)N2CCC3(CCCN(C)C3=O)C2)cn1 (stereo not drawn)
  Tgondii IFNg: 3.5
canonical_smiles: C=CCN1C(=O)C2(NCCc3c2[nH]c2ccc(Cl)cc32)c2ccccc21 (stereo not drawn)
  Tgondii IFNg: -53.8
canonical_smiles: Cc1nc(C)c(C(=O)N2C[C@H]3OC(=O)N(Cc4ccccn4)[C@H]3C2)s1
  Tgondii IFNg: 7.1
canonical_smiles: CC(C)N1CC[C@]2(CCC[C@@H](CNC(=O)c3cccn3C)O2)C1
  Tgondii IFNg: 3.1

Continued:
SMILES	Tgondii IFNg
COc1ccc(-c2noc(Cn3nc(C)c(C)c3C)n2)c(OC)c1OC	-7.2
COc1ccccc1C(=O)NCCc1sc(-c2ccc(F)cc2)nc1C	-107.2*
Cc1noc(C)c1S(=O)(=O)N(C)C[C@@H]1OCc2ccccc2-c2ccccc2C(=O)N([C@@H](C)CO)C[C@H]1C	-21.5
CNC(=O)c1cc2c(s1)CCN(Cc1cc3n(n1)CCNC3)C2	-1.8
CCOC(=O)c1cc(C#N)c(N2CCC(C(=O)NS(=O)(=O)Cc3ccccc3)CC2)nc1C	0.8
Cc1ccc(S(=O)(=O)N2CCCC3(CCCCC3)C2)cc1	-98.3*
O=c1cnnc(Nc2ccccc2F)[nH]1	-6.7
Cc1nc(-c2ccccn2)n2nnnc2c1Cl	-25.4
C[C@H](CO)N1C[C@H](C)[C@@H](CN(C)C(=O)Nc2ccnc(N3CCOCC3)c2)OCc2ccccc2-c2ccccc2C1=O	-23.1
O=C1CCCN1CCN1CCOC(Cc2ccccc2Cl)C1 (stereo not drawn)	-47.7
COC1CCN(C(=O)c2cc(Cc3n[nH]c(=O)c4ccccc34)ccc2F)CC1	10.9
O=C(Cn1c(=O)cc(C(=O)N2CCCCC2)c2ccccc21)NC1CCCC1	11.6
C=CCO[C@H]1CCN(C(=O)Cc2ccsc2)[C@H]1Cc1cnn(C)c1	42.7
CCCC#Cc1ccc2c(c1)[C@H]1[C@H](CCN1S(=O)(=O)c1cccc(F)c1)[C@H](CO)N2C	-19.6
CCOCC1CN(C(=O)Cc2ccccn2)Cc2c1cnn2C (stereo not drawn)	-7.8
CC[C@H]1C[C@@H](NC(=O)c2ccccc2)C[C@@H](c2ccccc2OCC(N)=O)O1	4.0
c1ccc(-c2noc(C3CCCN3Cc3cccc4nccnc34)n2)cc1 (stereo not drawn)	9.2
CCn1ccc2cc(S(=O)(=O)N3CCC(C(=O)NCCCN4CCCC4)CC3)ccc21	-7.6
COc1ccc(-c2c(C#N)c(N)nc3c2CCCC3)cc1	13.4
O=S(=O)(NCc1ccccc1)Nc1ccccc1N1CCOCC1	-16.3
O=C(Cc1ccccc1O)N1CCCC(Nc2ccc(F)c(F)c2)C1 (stereo not drawn)	10.5
O=C(CN1C2=NCCN2c2ccccc21)c1ccc(Cl)cc1	-37.1
CC(=O)N1C2CCN(Cc3ccsc3)CC2C[C@H]1Cn1cncn1 (stereo partly drawn)	33.6
CCOCc1ncn2c1CN(C(=O)Nc1cccc(F)c1)CC2	-11.7
CC(=O)ON(CC(=O)Nc1ccccc1C(=O)c1ccccc1)C(C)=O	-77.1*

Remaining list, next part
SMILES	Tgondii IFNg
CN1C(=O)CCc2cc(NS(=O)(=O)c3cccc(Cl)c3)ccc21	-12.4
Cc1cc(C)c(NC(=O)C(=O)NCCc2sc(-c3ccc(Cl)cc3)nc2C)c(C)c1	-26.5
Cc1ccc(NC(=O)CN2CCC3(CC2)N=C(c2cccc(F)c2)C(=O)N3)cc1C	37.7
Cc1oc(C2CCN(C(=O)Nc3ccc(Br)cc3)CC2)nc1C(=O)N(C)C	8.6
O=C(CCC1CCCC1)N1CCc2c([nH]c3ccccc23)C1c1ccc(Cl)cc1 (stereo not drawn)	-106.3*
Oc1ccccc1C1OC2CCCCC2C2=CCCCC21 (stereo not drawn)	-44.0
c1cnn(Cc2cnc3n2CCN(CC2CCOCC2)C3)c1	i
O=C1CC(c2n[nH]c(=O)n2CCc2ccc(F)cc2)CN1Cc1ccccc1 (stereo not drawn)	4.5
CCS(=O)(=O)N1CCC2(CC(=O)N(c3cnn(C)c3)C2)C1 (stereo not drawn)	4.6
CC[C@H]1OC(=O)C[C@@H](O)[C@H](C)[C@@H](O[C@@H]2O[C@H](C)[C@@H](O[C@H]3C[C@@](C)(O)[C@@H](O)[C@H](C)O3)[C@H](N(C)C)[C@H]2O)[C@@H](CC=O)C[C@@H](C)C(=O)/C=C/C(C)=C/[C@@H]1CO[C@@H]1O[C@H](C)[C@@H](O)[C@@H](OC)[C@H]1OC	-18.6
CCc1nc(OCC(=O)Nc2ccc(Cl)c(Cl)c2)c2ccccc2n1	12.1
COc1cc2c(cc1C1CC(=O)Nc3c1c(C(C)C)nn3C)CCC2 (stereo not drawn)	0.6
Cc1noc(C)c1S(=O)(=O)N(C)C[C@@H]1Oc2c(NS(=O)(=O)c3cn(C)cn3)cccc2C(=O)N([C@H](C)CO)C[C@H]1C	9.5
COCCN1C[C@@H]2CN(C(=O)[C@H]3CCCO3)C[C@H]2C1=O	32.1
CN(CCNC(=O)c1cnc(-c2ccccc2)nc1)S(C)(=O)=O	5.4
CC(C)(C)c1oc(C(N)=O)cc1CN1CCCCC1c1ccccn1 (stereo not drawn)	10.6
O=C(NCc1ccncc1)C1CC12CCN(C(=O)c1ccc(F)cc1)C2 (stereo not drawn)	-3.4
N#Cc1ncccn1	8.9
COc1cccc(OC)c1C(=O)N1CCN(C(=O)c2cnc(N)nc2C)CC1	-0.9
Oc1cccc(-c2c3nc(c(-c4cccc(O)c4)c4ccc([nH]4)c(-c4cccc(O)c4)c4nc(c(-c5cccc(O)c5)c5ccc2[nH]5)CC4)C=C3)c1	8.2
COC1C=COC2(C)Oc3c(C)c(O)c4c(c3C2=O)C2(C=C(NC(=O)/C(C)=C\C=C/C(C)C(O)C(C)C(O)C(C)C(OC(C)=O)C1C)C4=O)OCC(=O)O2 (stereo not drawn)	13.7
CCC(C)C(=O)Nc1nnc(CC(C)C)s1 (stereo not drawn)	-14.0
O=C(c1cccs1)N1c2ccccc2C=Cc2ccccc21	3.2
Cc1cccc(C(=O)N2CCn3cc(CNC(=O)CC4CC4)nc3C2)n1	-0.2
CCN1c2cc(C)ccc2-n2cccc2C12CCN(C(=O)NCc1ccc(F)cc1)CC2	-114.2*

No new results follow: entries from further up.
SMILES	Tgondii IFNg
COc1cccc(OC)c1C(=O)N1CCN(C(=O)c2cnc(N)nc2C)CC1	-0.9
Oc1cccc(-c2c3nc(c(-c4cccc(O)c4)c4ccc([nH]4)c(-c4cccc(O)c4)c4nc(c(-c5cccc(O)c5)c5ccc2[nH]5)CC4)C=C3)c1	8.2
COC1C=COC2(C)Oc3c(C)c(O)c4c(c3C2=O)C2(C=C(NC(=O)/C(C)=C\C=C/C(C)C(O)C(C)C(O)C(C)C(OC(C)=O)C1C)C4=O)OCC(=O)O2 (stereo not drawn)	13.7
CCC(C)C(=O)Nc1nnc(CC(C)C)s1 (stereo not drawn)	-14.0
O=C(c1cccs1)N1c2ccccc2C=Cc2ccccc21	3.2
Cc1cccc(C(=O)N2CCn3cc(CNC(=O)CC4CC4)nc3C2)n1	-0.2
CCN1c2cc(C)ccc2-n2cccc2C12CCN(C(=O)NCc1ccc(F)cc1)CC2	-114.2*

(listing goes on)
SMILES	Tgondii IFNg
Cc1ccc(CN2CC[C@@H]3O[C@@H](C(=O)NCc4ccco4)CC[C@@H]32)o1	-3.0
C[C@H]1CCCCO[C@H](CN(C)C(=O)c2ccncc2)[C@@H](C)CN([C@@H](C)CO)C(=O)c2cc(NS(=O)(=O)c3cccs3)ccc2O1	14.9
CN1CCN([C@H]2CN(C3CCN(C(=O)c4ccccc4)CC3)C[C@@H]2O)CC1	-2.2
CCOc1cccc(CNC(=O)c2c(O)c3cccnc3n(-c3cccc(F)c3)c2=O)c1	93.6
CN(C)C1CCN(C(=O)c2cccn2C)C(C(=O)O)C1 (stereo not drawn)	-8.4
O=C(N=c1sc2ccccc2n1-c1ccccc1)c1ccccc1	-38.4
c1ccc(-c2ncn(CCc3cnc[nH]3)c2-c2ccc3c(c2)OCCO3)cc1	-61.9
CC(C)Nc1ccnc(C2COCCN2Cc2ccccc2F)n1 (stereo not drawn)	-9.2
Cc1nc(CN2CCc3c(cnc(N(C)C)c3C(=O)O)C2)cs1	-41.9
O=C(Nc1cccnc1N1CCOCC1)c1cccs1	-10.9

Looked up above.
Cc1ccc(CN2CC[C@@H]3O[C@@H](C(=O)NCc4ccco4)CC[C@@H]32)o1 in Tgondii IFNg is listed with -3.0
O=C(N=c1sc2ccccc2n1-c1ccccc1)c1ccccc1 in Tgondii IFNg is listed with -38.4
CN1CCN([C@H]2CN(C3CCN(C(=O)c4ccccc4)CC3)C[C@@H]2O)CC1 in Tgondii IFNg is listed with -2.2

Assay outcomes as filed in PubChem BioAssay.

Not all compounds are listed; count on the stated rates, not on these rows.
